NPYLR7 agonist: activates Aedes aegypti NPYLR7 receptor. activation, % at 10 µM. HEK293T NPYLR7/Galpha15, GCaMP6s calcium fluorescence. 0.15% of 270,000 active; in the data active = activation above about 40%;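 also: 0% = vehicle and 100% = reference agonist at the receptor; some compounds past the cut are filed as inactive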
NPYLR7 agonist max-min: further read-out of NPYLR7 agonist, marked with its call; activation, %; measured here: Max-Min RFU normalised activation; some inactives read as strong as hits;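 span of the calcium signal over five minutes; 0% = vehicle and 100% = native peptide agonist; compound fluorescence can raise it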
Active calls of the source: *; & = joins results of further samples. An excerpt; count on the stated rates, not on these rows.

Each structure is followed by: NPYLR7 agonist	NPYLR7 agonist max-min
O=C1CC(C(=O)N2CCN(c3cccc(O)c3)CC2)CN1Cc1ccc(Cl)cc1 (configuration not stated)
  6	5
CCCCCCN1CC2=C(C1=O)C(c1cc(F)c(F)cc1F)NC(=O)N2C (configuration not stated)
  3	2
CS(=O)(=O)Nc1ccccc1C1=NN(S(C)(=O)=O)C(c2ccccc2F)C1 (configuration not stated)
  7	11
CCCCCCC(=O)N1CCN(c2cc(Oc3ccc(Cl)cc3F)ncn2)CC1C (configuration not stated)
  12	13
COc1cccc(-c2cccc3c2NC(=O)C3(C)Cc2ccccc2)c1 (configuration not stated)
  4	2
O=C(Nc1ccc(Oc2ccccc2F)cc1)C1CCN(C(=O)C2=CCCC2)CC1
  -1&7	-2&8
N#Cc1cccc(S(=O)(=O)Cl)c1
  -5	-8
Cc1nc2cc(F)ccc2cc1C(=O)N1CCN(S(=O)(=O)c2ccc(Cl)c(Cl)c2)CC1
  1	26
CC(Nc1nc(CCN)nc2ccccc12)c1ccccc1-n1cccn1 (configuration not stated)
  5	-5
C=CCOC(=O)c1sc2nc(CN(Cc3ccccc3)CC(O)CCC)[nH]c(=O)c2c1C (configuration not stated)
  7	7
CCOCCCN(CC(=O)c1c(C)c(C(=O)OCC)n(CC)c1C)C(=O)c1cccc(Cl)c1
  -8	-8
CCOC(=O)C(=CN(C1=NCC(C)S1)c1ccc(F)c(Cl)c1)C(=O)OCC (configuration not stated)
  11	8
CCCC(=O)Nc1c(-c2ccc(F)cc2)nc2cc(C)ccn12
  -8	-4
CC(=O)NCc1ccc(-c2nc(CCc3ccccc3)sc2C)s1
  -6	-10
COc1ccccc1-n1c(CNC(=O)c2ccco2)nnc1SCC(=O)N1CCc2ccccc21
  11	6

Overlap with the part before: 4 entries, then new ones.
Each structure is followed by: NPYLR7 agonist	NPYLR7 agonist max-min
CCOC(=O)C(=CN(C1=NCC(C)S1)c1ccc(F)c(Cl)c1)C(=O)OCC (configuration not stated)
  11	8
CCCC(=O)Nc1c(-c2ccc(F)cc2)nc2cc(C)ccn12
  -8	-4
CC(=O)NCc1ccc(-c2nc(CCc3ccccc3)sc2C)s1
  -6	-10
COc1ccccc1-n1c(CNC(=O)c2ccco2)nnc1SCC(=O)N1CCc2ccccc21
  11	6
CC(=O)N1CCc2c(sc(NC(=O)/C=C/c3cccs3)c2-c2nc3ccccc3s2)C1
  1	1
Cc1cc(C(=O)O)nn1-c1ccc(Br)cc1
  -3	-4
COc1ccc(CN2CCC(n3nccc3NC(=O)Nc3ccccc3C)CC2)c(C)c1C
  -7	-7
COc1ccc(CC(=O)NCC2CCCN(C(=O)CSC)C2)cc1 (configuration not stated)
  -5	-7
O=C(NCc1ccccn1)c1cccc(OC2CCN(C(=O)c3ccoc3)CC2)c1
  3	1
Clc1cccc2c1CCC2N1CCC(n2cncn2)CC1 (configuration not stated)
  8	6
COc1ccc(/C=C2N=C(/C=C/c3cccc(Cl)c3Cl)OC\2=O)cc1OC
  -4	-7
CCc1nc2c(OCCCN(C)S(C)(=O)=O)cccn2c1N(C)C(=O)Nc1ccccc1OC
  6	-6
O=C(Nc1ccccc1CN1CCCC1)c1csc2c1CCCC2
  0	-2
CCn1c(C2CCN(C(=O)NCc3ccco3)CC2)nn(C)c1=O
  6	-2
COc1ccccc1CCC(=O)N1CCN(c2ncccn2)CC1C(=O)O (configuration not stated)
  19	6
CCn1cc(-c2ccc(S(C)(=O)=O)cc2)c(C)n1
  4	2
CCNC(=O)N(Cc1nccn1Cc1ccc(OC)cc1)C1CCCCC1
  1	10
COc1c(F)cc(CN2CCC(=O)NCC2C)cc1Cl (configuration not stated)
  16	6
O=C(NCC1CCN(c2nc(Cc3ccc(Cl)cc3)ns2)CC1)c1cccc(Br)c1
  21	22
O=C(Cc1ccc(-c2ccccc2)cc1)Nc1ccc(-c2ccc3nncn3n2)cc1
  -10	-1
CN(C)Cc1ccccc1CNC(=O)c1ccccc1F
  2	2
Cc1ccc(-n2nc(C(=O)N(C)C3CCCCC3)c(=O)n(Cc3ccccc3C)c2=O)cc1Cl
  7	11
Cc1c(C)n2c3c(=O)n(CCCO)c(=O)n(C)c3nc2n1-c1ccc(C(F)(F)F)cc1
  10	9
CCOc1ccccc1C(=O)NCCOc1ccc2nnc(-c3ccccc3)n2n1
  -8	-13
CCN1CCN(CCCCNC(=O)N2CC(C)(C)C2c2ccccc2)CC1 (configuration not stated)
  9	9
Cc1ccc(N=C(NOCc2ccccc2Cl)c2nonc2N)cc1
  16	13
COc1ccc(OC)c(-c2nc3ccccn3c2NC(C)(C)CC(C)(C)C)c1
  2	5
CCc1c(C#N)c(N)nc2sc(C(=O)c3ccc(C)cc3)c(N)c12
  1	0
COc1ccc2nc(NC(=O)/C=C/c3cccc(I)c3)sc2c1
  -7	-13
O=C(NCCCn1nc(-c2ccncc2)ccc1=O)Nc1ccc(F)cc1
  11	2
CCCn1c(SC(C)C(=O)C23CC4CC(CC(C4)C2)C3)n[nH]c1=O (configuration not stated)
  0	2
Cc1ccc(C2c3ccsc3CCN2CC(=O)N2CCN(C(=O)NC3CCCCC3)C(C)C2)cc1 (configuration not stated)
  7	0
O=C(NC1CCN(Cc2ccccc2)CC1)c1ccc(CSc2nc(Cl)cc(N3CCCC3)n2)cc1
  2	14
Cc1cccc(CC(=O)NCCc2csc3nc(-c4cccc(C)c4)nn23)c1
  5	1

Three consecutive compounds already listed:
Each structure is followed by: NPYLR7 agonist	NPYLR7 agonist max-min
CCN1CCN(CCCCNC(=O)N2CC(C)(C)C2c2ccccc2)CC1 (configuration not stated)
  9	9
Cc1ccc(N=C(NOCc2ccccc2Cl)c2nonc2N)cc1
  16	13
COc1ccc(OC)c(-c2nc3ccccn3c2NC(C)(C)CC(C)(C)C)c1
  2	5

Additional results follow:
Each structure is followed by: NPYLR7 agonist	NPYLR7 agonist max-min
CCN(CCOc1cccc(C)c1)C(=O)c1ccc2nc(C)[nH]c2c1
  -3	-9
O=C(Nc1ccc(N2CCCS2(=O)=O)cc1)C1CCN(C(=O)C2CC2)CC1
  5	1
COc1ccc(C(=O)N2CC3C(C2)C3(C)C)nn1 (configuration not stated)
  3	0
O=C(Nc1ccc2ncccc2c1)C1CCCc2cc[nH]c21 (configuration not stated)
  31	20
CCN(CCO)c1ccc(Nc2cc(-c3cc(C(F)(F)F)cc(C(F)(F)F)c3)ncn2)cc1
  13	7
Cn1cccc1C(=O)Nc1ccc(N2CCOCC2)cc1
  0	2
CN(C)CCCNc1cc(C(C)(C)C)nc2c(-c3ccc(Cl)cc3)cnn12
  4	5
O=C(NCC1Cc2cc(F)ccc2O1)c1ccccc1C(F)(F)F (configuration not stated)
  -8	-3
CCN1CCN(c2ccc(Cl)cc2NC(=O)CCOc2ccccc2OC)CC1
  2	-2
Cc1ccc(-n2ncc3c(=O)[nH]c(-n4nc(C)cc4NC(=O)c4cccs4)nc32)cc1
  1	0
CN(C(=O)CN(CCO)CC(=O)N(C)C(C)(C)Cc1ccccc1)C(C)(C)Cc1ccccc1
  3&-2	-8&-5
COC(=O)c1cc(NC(=O)CSc2nc3ccccc3s2)cc(C(=O)OC)c1
  -5&4	-10&13
CNc1cnc(-c2ccccc2NS(C)(=O)=O)cn1
  4	1
CC(C)C1CN(C(=O)C2=NNC(=O)CC2)CCCN1Cc1ccc(F)cc1 (configuration not stated)
  5	2
CN1CC(NC(=O)N(Cc2ccoc2)C2CCCCC2)CCC1=O (configuration not stated)
  2	0

Some of these compounds in order of SMILES length, falling.
Each structure is followed by: NPYLR7 agonist	NPYLR7 agonist max-min
CN(C(=O)CN(CCO)CC(=O)N(C)C(C)(C)Cc1ccccc1)C(C)(C)Cc1ccccc1
  3&-2	-8&-5
CCN1CCN(c2ccc(Cl)cc2NC(=O)CCOc2ccccc2OC)CC1
  2	-2
O=C(Nc1ccc2ncccc2c1)C1CCCc2cc[nH]c21 (configuration not stated)
  31	20
Cn1cccc1C(=O)Nc1ccc(N2CCOCC2)cc1
  0	2

Other entries follow:
Each structure is followed by: NPYLR7 agonist	NPYLR7 agonist max-min
COc1cn2c(cc1=O)C(=O)N(CCNC(=O)c1cc(Cl)ccc1Cl)CC2
  4	-1
Cc1ccc(CNc2ccc(C(=O)NCCC3CCCCN3C)cn2)o1 (configuration not stated)
  1	-6
COc1cc(OC)cc(C(=O)N2CCCC(c3nc4ccccc4[nH]3)C2)c1 (configuration not stated)
  2	-1
Cc1cc(NC(=O)CN2CCN(CC3CC3)C(CCO)C2)ccc1Cl (configuration not stated)
  -1	-9
CN(Cc1ccccc1)C1(CNC(=O)Cc2ccc3c(c2)OCO3)Cc2ccccc2C1
  2	-2
Cc1cc(COc2ccccc2)oc1C(=O)NC(C)c1nccs1 (configuration not stated)
  4	-4
Cc1cc(-c2cccc(CN3CCOCC3)c2)nc(-c2ccccc2O)n1
  -4	-5
COCCn1c(SCC(=O)Nc2cc(C)cc(C)c2)nc2c(c1=O)SC(C)C2 (configuration not stated)
  0	-3
Cc1ccc(-n2nnc3c(N4CCN(C(=O)Cc5ccccc5)CC4)ncnc32)cc1
  0	-11
Cc1ccc(-n2c(SCc3nc(C(=O)NCc4ccc(F)cc4)cs3)nnc2-c2ccccc2Cl)cc1
  -5	-2
O=C(Nc1ccc(-c2nc3ccccc3o2)cc1)c1cccc(Br)c1
  4	2
CC(SCc1ccc(F)cc1)C(=O)N1CCN(S(=O)(=O)c2ccccc2)CC1 (configuration not stated)
  2&11	1&16
CCOC(=O)c1nn(-c2ccc(C(F)(F)F)cc2)c(=O)c2c(NC(=O)C3CC3)scc12
  12	9
COC(=O)C1CC(Br)=NN1c1ccc(C)cc1 (configuration not stated)
  -1	-1
COc1cccc(CSc2nnc(CNC(=O)NCc3ccccc3)n2-c2cc(Cl)ccc2Cl)c1
  -3	-1
CCCc1c(C)nn(-c2ccc(C(=O)NCC(c3ccccc3)c3ccccc3)cc2)c1C
  0	-1
CNc1ccc(-c2ccccc2F)cn1
  2	-1
O=C1CCCN1Cc1ccc(CNc2ncc(C(F)(F)F)cc2Cl)cc1
  -4	-3
COC(=O)c1c(N)sc2c1CCN(C(=O)OC(C)(C)C)C2
  -6	-8
Cc1cccc(S(=O)(=O)NC(=O)C2(C)CCN2C(=O)CCc2cccs2)c1 (configuration not stated)
  1	-1
Cc1cccn2c(CC(=O)NC[C@H]3C[C@H]4C=C[C@H]3C43CC3)cnc12
  2	1
CC(N)=C(C#N)C(=O)COC(=O)CCC1CCCC1
  0	1
Cc1noc(C)c1CN1CCN2C=C(C(=O)NCC3CCOCC3)OC2=NC1=O
  4	3
Cc1cnc2n(c1=O)C(CC(=O)N1CCN(C)CC1)CS2 (configuration not stated)
  0	-1
Clc1ccc(Cc2nc(CSc3ccc(Cl)c(Cl)c3)cs2)cc1Cl
  6	4
O=C1N2CN(C3CCCCC3)CN=C2SC1(CO)CO
  -1&7	-3&7
C=CCC(=O)N(CC=C)Cc1ccc(SC)cc1
  -5	-5
Cc1ccoc1C(=O)NCC1(CO)CCCC1
  -4	-4
CCN(CCN1CCOCC1)Cc1cc(C)ccc1O
  -14	-17
COc1cccc(OC)c1C(=O)N1CCN(C(c2ccc(F)cc2)c2ccc(F)cc2)CC1
  -2	10

As entered above.
`Cc1cccc(S(=O)(=O)NC(=O)C2(C)CCN2C(=O)CCc2cccs2)c1` (configuration not stated) | NPYLR7 agonist: 1
`Clc1ccc(Cc2nc(CSc3ccc(Cl)c(Cl)c3)cs2)cc1Cl` | NPYLR7 agonist max-min: 4
`COC(=O)c1c(N)sc2c1CCN(C(=O)OC(C)(C)C)C2` | NPYLR7 agonist: -6
`CC(N)=C(C#N)C(=O)COC(=O)CCC1CCCC1` | NPYLR7 agonist max-min: 1
`Cc1noc(C)c1CN1CCN2C=C(C(=O)NCC3CCOCC3)OC2=NC1=O` | NPYLR7 agonist: 4
`Cc1cccn2c(CC(=O)NC[C@H]3C[C@H]4C=C[C@H]3C43CC3)cnc12` | NPYLR7 agonist: 2

New compounds follow.
Each structure is followed by: NPYLR7 agonist	NPYLR7 agonist max-min
CCc1ccc(S(=O)(=O)NCC(c2ccc3c(c2)CCCN3C)N(C)C)s1 (configuration not stated)
  4	4
COC(c1ccccc1)c1nnc(CCC(=O)NCc2cccs2)o1 (configuration not stated)
  4	0
CN(C)CCCNC(N)=S
  -2	-5
Cc1ccc(NC(=O)CC2C=CS(=O)(=O)C2)cc1C (configuration not stated)
  2	1
O=C1Nc2c(ccc(Cl)c2Cl)C(=O)C1(Br)c1ccccc1 (configuration not stated)
  5	8
CSc1ccc(NC(=O)C2(C)CCN2C(=O)CCc2ccccc2)cc1 (configuration not stated)
  5	3
CCCCCC(=O)Nc1c(-c2ccc(C(F)(F)F)cc2)nc2ccccn12
  -15	-11
O=C(O)c1ccc(CSCC(=O)N2CCCCC2)cc1
  3	-2
CCOC(=O)c1ccc(OC2CC3CCC(C2)N3C(=O)c2ccc(CSc3ccc(Cl)cc3Cl)cc2)cc1 (configuration not stated)
  9	-3
COc1ccc(C(=O)NCc2cnn(Cc3ccccc3)c2)cc1O
  2	-6
Cc1cccc(-n2nnc3c(=O)n(CC#N)cnc32)c1
  -1	-7
COc1ccc(-c2cc(C(=O)N3CCN(c4ccc([N+](=O)[O-])cc4)CC3)n(-c3cc(C)ccc3C)n2)c(OC)c1
  -5	2
COc1cn(CC(=O)Nc2ccc(Cl)cc2)c(CO)cc1=O
  -2	-3
COc1ccc(-n2ccnc2CN2CC(c3ccncc3)C2)cc1
  4	1
COC(=O)C(c1ccccc1F)C1C=CC(NC(=O)/C(C)=C/c2ccccc2)C1 (configuration not stated)
  7	5
